Bioassay records as filed in PubChem.
GALR2 ag – GALR2 (human) receptor agonism. O43603. GALR2-expressing cells, agonist activation read-out. activation, %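 (tested at 5 µM)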. actives 0.48% (n = 140,000). AID 803;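 active = above mean plus 3 SD of all compounds, about 5% in these data, not always enough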;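 note: 0% = vehicle buffer wells and 100% = reference agonist at full effect; tested in CHO reporter cells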
Target sequence (O43603 whole entry, looked up): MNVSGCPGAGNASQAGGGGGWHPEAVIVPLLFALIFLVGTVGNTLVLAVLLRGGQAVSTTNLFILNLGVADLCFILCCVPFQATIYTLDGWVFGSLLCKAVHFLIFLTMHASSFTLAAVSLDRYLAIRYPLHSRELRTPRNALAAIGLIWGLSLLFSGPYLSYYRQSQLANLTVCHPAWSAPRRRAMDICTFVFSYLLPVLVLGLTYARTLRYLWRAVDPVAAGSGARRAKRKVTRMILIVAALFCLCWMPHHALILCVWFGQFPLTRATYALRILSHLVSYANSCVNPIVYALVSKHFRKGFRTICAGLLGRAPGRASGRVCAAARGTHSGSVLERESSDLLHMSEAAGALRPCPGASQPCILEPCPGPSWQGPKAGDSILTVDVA
RGS16-Gao HTS – modulates binding between human RGS16 and Galphao; bead-based flow cytometry RGS16-Galphao binding, fluorescence; actives lie on both sides; binding response (% of control), % at 10 µM; actives 0.38% (n = 220,000); AID 1441;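 active = below 25% or above 175%, edge rows of some plates excepted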;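 note: Galphao activated by GDP with aluminum fluoride before binding; 100% = wells without compound and 0% = beads without RGS; some results beyond the cut were filed as inactive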
Target sequence (O15492 whole entry, looked up): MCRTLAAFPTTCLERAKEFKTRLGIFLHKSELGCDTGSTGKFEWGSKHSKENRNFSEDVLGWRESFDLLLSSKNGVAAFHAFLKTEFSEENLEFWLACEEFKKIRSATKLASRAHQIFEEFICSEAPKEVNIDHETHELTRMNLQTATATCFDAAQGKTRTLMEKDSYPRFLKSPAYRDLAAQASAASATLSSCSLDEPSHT
Target sequence (P09471 whole entry, looked up): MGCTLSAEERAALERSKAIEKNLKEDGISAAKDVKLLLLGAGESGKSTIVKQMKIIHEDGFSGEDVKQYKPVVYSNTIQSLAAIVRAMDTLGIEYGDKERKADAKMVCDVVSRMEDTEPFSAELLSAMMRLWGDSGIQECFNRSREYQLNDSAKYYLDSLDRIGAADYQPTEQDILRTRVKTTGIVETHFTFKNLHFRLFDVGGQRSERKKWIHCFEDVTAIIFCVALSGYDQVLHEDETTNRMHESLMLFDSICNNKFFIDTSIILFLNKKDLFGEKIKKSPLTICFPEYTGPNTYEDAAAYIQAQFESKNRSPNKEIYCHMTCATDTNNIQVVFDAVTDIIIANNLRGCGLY
HSV augment – increases HSV replication in cells. HSV replication augmentation in cells, fold increase. maximum fold increase. actives 0.005% (n = 220,000). AID 1956;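 active = peak rise of 1.5-fold or more in the series; inconclusive = self-fluorescent or not available for retest; tested in PC3 cells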;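 note: first round at 10 µM; read as green reporter fluorescence; hits show the peak of a series up to 25 µM; 1 = signal of infected wells without compound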
Insulin prom inh – TRM-6 insulin promoter activity inhibition | TRM-6 cells (human fetal islet line), insulin promoter-eGFP reporter, imaging; reporter expression induced with tamoxifen | inhibition, % at 2 µM | actives 0.9% (n = 130,000) | AID 1273;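 active = inhibition above the mean plus 3 SD, with well images judged a real hit on visual review, cut at about 60% in these data, passing the limit was not always enough; inconclusive = inhibition over the cutoff but images rejected on review; inactive = inhibition not above the cutoff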
PKD1 inh – blocks activity of human protein kinase D1; PKD1 kinase fluorescence polarization assay; inhibition, %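 (about 10 µM by stock and volumes)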; actives 0.056% (n = 200,000);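 active = inhibition of 50% or more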;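 note: controls were vehicle for no effect and a reference inhibitor for full effect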
Insulin prom inh cell count – also measured in Insulin prom inh; calls as there; normalized cell count, %; measured here: cell count, toxicity; reference of the scale not given here;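 cells exposed to compound for 48 h; stained nuclei by imaging scaled within each plate; lower means fewer cells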
HSV augment primary fold – also measured in HSV augment; calls as there; fold increase; compound at 10 µM; measured here: primary screen fold increase 10 uM; tested in PC3 cells;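 GFP signal in the first replicate; 1 = infected wells without compound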
* marks the source's active call; other numbers are inactive results; i = inactive; ? = inconclusive; . = not tested or not shown; & = joins results of further samples.

Every second line gives: GALR2 ag, RGS16-Gao HTS, HSV augment, HSV augment primary fold, Insulin prom inh, Insulin prom inh cell count, PKD1 inh
- Nc1nnc(CC(=O)N/N=C/c2ccc(-c3ccc(F)cc3)o2)s1
→ ., 106, i, 0.92, ., ., .
- CCOc1ccccc1NC(=O)c1cc(C(=O)c2cc(Br)ccc2O)coc1=N
→ ., 89, i, 0.83, 41, 57, -2
- Cc1nn(C)c(C)c1S(=O)(=O)N(CC(=O)N1CCc2ccccc21)c1ccc(C(C)C)cc1
→ -3.1, 105, i, 0.92, ., ., -2
- Cc1cccc(NC(=S)N/N=C/c2ccc(Cl)c([N+](=O)[O-])c2)c1
→ 1.2, 100, i, 1.1, ., ., -8
- CN(C)S(=O)(=O)c1ccc(-c2cn3ccccc3n2)cc1
→ -1.1, 100, i, 0.94, -10, 151, -3
- Cc1c(NC(=O)C(C)OC(=O)/C=C/c2ccc3c(c2)OCO3)c(=O)n(-c2ccccc2)n1C (stereo unspecified)
→ ., 100, i, 0.98, ., ., -7
- CC(C)C[C@H](NC(=O)c1nc[nH]c1C(=O)NCCCCCNC(=O)OC(C)(C)C)C(=O)OC(C)(C)C
→ ., 99, i, 0.58, ., ., -2
- CCN(CC)c1ccc(CNc2nc3ccccc3n2CCN2CCOCC2)cc1
→ ., 103, i, 1, 40, 130, -1
- CCCC(=O)Nc1ccc(C(=O)N/N=C/c2ccc[nH]2)cc1
→ -0.1, 102, i, 0.69, 17, 119, -3
- COC(=O)CC(=O)CSc1nc2c(cc1C#N)CCC2
→ -1.6, 89, i, 1.2, 44, 126, -2
- O=C(Nc1ccc(N2CCOCC2)cc1)c1cn2ccccc2n1
→ -2.0, 68, ., ., -27, 137, -3
- OCC1(Cc2ccccc2C(F)(F)F)CCN(Cc2cccc3cnccc23)CC1
→ ., 98, i, 0.96, ., ., -5
- Cc1c(NC(=O)c2coc(=O)c(Br)c2)c(=O)n(-c2ccccc2)n1C
→ -0.5, 101, i, 0.65, 29, 90, 2
- C=CCn1c(Cc2csc(N)n2)nnc1SCc1ccc(C(=O)OC)cc1
→ 0.8, 103, i, 0.67, ., ., 1
- Cc1ccc2cc(CN(CCN3CCOCC3)C(=O)NCc3ccccc3)c(=O)[nH]c2c1C
→ -1.8, 103, i, 0.87, -82, 83, -7
- CN(C)CCCOc1nc2c(c(=O)n(C)c(=O)n2C)n1C
→ -2.4, 99, i, 0.95, 62, 136, -5
- Fc1ccc(NC(=S)N2CCCC(c3ccccc3)=N2)cc1
→ ., 98, i, 0.92, ., ., .
- Cc1ccc(S(=O)(=O)NCc2csc(-c3cccs3)n2)cc1
→ ., 100, i, 0.67, ., ., .
- O=C(Nc1ccccc1N1CCOCC1)c1ccc(Cl)c(S(=O)(=O)NCc2ccco2)c1
→ ., 104, i, 0.85, -28, 48, -7
- COc1cc(OC)cc(-c2cc3nc(C)c(CCC(=O)O)c(=O)n3[nH]2)c1
→ -2.6, 101, ., ., ., ., -2
- COC(=O)C1C(O)=CC(=O)CC1C (stereo unspecified)
→ -1.3, 76, i, 1.1, -18, 97, 1
- Cc1cccc(CCNC(=O)CCS(=O)(=O)c2ccc(Br)cc2)c1
→ ., 102, i, 1.1, -21, 64, 4
- O=C(/C=C/c1cccc([N+](=O)[O-])c1)NC(=S)Nc1cccc(NC(=O)c2ccccc2Cl)c1
→ -1.6, 95, i, 0.85, 10, 93, -7
- CCOC(=O)C1=C(C)OC(N)=C(C#N)C1c1cc(Cl)c(OCC(N)=O)c(OC)c1 (stereo unspecified)
→ -1.4, 117, i, 0.94, 4, 160, -7
- COc1ccc(NS(=O)(=O)c2cc(C)ccc2OC)cc1OC
→ -1.5, 98, i, 0.93, -33, 104, -12
- CCCC1(C)NC(=O)c2ccccc2O1 (stereo unspecified)
→ ., 100, i, 0.96, 41, 102, -3
- CCN(CC)CCCNc1nc(-c2ccccc2)nc2ccccc12
→ -0.5, 105, i, 0.69, -174, 97, 13
- O=C(O)c1cc(=O)c2c(OCC(O)COc3cccc4oc(C(=O)O)cc(=O)c34)cccc2o1
→ -1.1, 96, ., ., -43, 146, 12
- C/C=C(/C)C(=O)Nc1cccc(C2=NOC3(C2)C[C@@H](C(N)=O)N(C(=O)/C=C/CC)C3)c1 (stereo partly specified)
→ ., 111, i, 0.87, ., ., .
- Cc1ccc(CS(=O)(=O)CCC(=O)NCCCOC(C)C)cc1
→ 0.7, 94, i, 0.9, -3, 84, -7
- CS(=O)(=O)N1CCC(C(=O)Nc2ccc(OCc3ccccc3)cc2)CC1
→ 3.1, 105, i, 0.95, 71*, 88*, 0
- Cc1ccsc1/C=N/NC(=O)CNC(=O)c1ccc(S(=O)(=O)N2CCOCC2)cc1
→ ., 102, i, 1, 0, 106, 4
- CO/N=C/C(C#N)=C/c1cc(C(=O)c2ccccc2)cn1C
→ ., 38, i, 0.85, 9, 77, -1
- CCOC(=O)CC1CCCCN1Cc1cn[nH]c1-c1ccc(F)cc1F (stereo unspecified)
→ ., 103, i, 1, ., ., 1
- CCOC(=O)CC1C(=O)NCCN1C(=O)c1c(F)cccc1F (stereo unspecified)
→ -3.3, 102, i, 1, 17, 128, -2
- Cc1ccc(/C=N/NC(=O)CSc2nc3ccccc3o2)cc1
→ -1.3, 85, i, 1, -73, 35, -6
- CC1(C)NC(=O)N(CCCCOc2ccc(Cl)cc2C=O)C1=O
→ ., 103, i, 0.96, ., ., -2
- C#CCNC(=O)C1=C[C@H](c2ccc3c(c2)OCO3)C[C@H](OCc2ccc(CO)cc2)O1
→ ., 100, i, 0.97, ., ., -4
- Fc1ccc(N=c2ssnc2Cl)c(F)c1
→ ., 89, i, 0.98, -25, 101, -2
- Cc1nnc(SCC(=O)c2cc(C)n(-c3ccc4c(c3)OCO4)c2C)s1
→ 10, 98, i, 0.83, ., ., 1
- S=c1[nH]nc(-c2cccnc2)n1/N=C/c1ccc(Br)s1
→ -0.1, 99, i, 1.1, -107, 40, 2
- Cc1c(C(=O)NCCCN2CCOCC2)sc2nc(-c3ccccc3)cn12
→ -1.3, 97, ., ., ., ., -11
- CN1CC=C2C(C#N)=C(N)C(C#N)(C#N)[C@H](c3cccs3)[C@H]2C1
→ -2.6, 112, ?, ., -108, 154, 4
- CN(C(=S)NC1CCCCC1)C1(c2ccccc2Cl)CCCCC1=O (stereo unspecified)
→ -0.2, 101, i, 1.1, ., ., -9
- O=C(COCc1nc2ccccc2c(=O)[nH]1)NC1CCCC1
→ -1.2, 101, i, 1.2, -50, 77, -5
- O=C(CCn1cnnn1)Nc1ccccc1
→ ., 102, i, 1.1, ., ., 2
- Cn1c(=O)c2c(nc(Br)n2CCCc2ccccc2)n(C)c1=O
→ -1.5, 98, i, 0.99, 14, 104, 13
- O=C(O)CCc1ncc(C(F)(F)F)cc1Cl
→ -2.8, 100, i, 0.99, -7, 134, -2
- O=C(NC1CCCC1)C1CCCN1C(=O)Nc1ccc(Cl)cc1 (stereo unspecified)
→ -1.5, 101, i, 0.92, ., ., -5
- CCC(C)NC(=O)Nc1ccc(Br)cc1 (stereo unspecified)
→ ., 102, i, 0.96, -10, 162, -2
- CC(=O)N(C(C)=O)c1c(C#N)c(C)n(-c2ccccc2)c1C(=O)c1ccccc1
→ -3.1, 91, i, 0.85, 16, 102, -19
- CCC(C)NC(=O)N[C@@H](CCSC)C(=O)OC (stereo partly specified)
→ -1.6, 98, i, 0.97, -392, 64, -5
- COc1ccc(C(C)=O)cc1COC(=O)c1ccc2ccccc2n1
→ ., 108, i, 0.9, 17, 96, -3
- CC(C)OC(=O)c1ccccc1C(=O)c1ccc(N)c([N+](=O)[O-])c1
→ ., 97, i, 0.95, ., ., -6
- COc1ccc(N2CCN(CCNC(=O)Nc3ccc(Cl)cc3)CC2)cc1
→ -2.3, 159, i, 0.92, -3, 128, -2
- Cc1cc(-c2ccccc2)nc(Oc2ccc(C(C)(C)C)cc2)c1S(C)(=O)=O
→ -0.4, 114, i, 0.91, 35, 52, -11
- COc1ccc(N2CCN(CCCn3c(=S)[nH]c4ncccc4c3=O)CC2)cc1
→ -2.0, 103, i, 0.86, 6, 82, 1
- Cc1cccc(NC(=S)NC2CCCC2)n1
→ ., 88, i, 1.1, 29, 98, 0
- COC(=O)COc1cccc2c(=O)n(CC(=O)NCc3ccccc3)ccc12
→ ., 110, i, 0.82, ., ., .
- CCS(=O)(=O)N1Cc2ccccc2CC1C(=O)Nc1nnc(SCc2ccc(C#N)cc2)s1 (stereo unspecified)
→ -0.5, 105, i, 0.81, 19, 113, 3

Carrying on.
Every second line gives: GALR2 ag, RGS16-Gao HTS, HSV augment, HSV augment primary fold, Insulin prom inh, Insulin prom inh cell count, PKD1 inh
- O=C(NCCc1ccc(Cl)cc1)c1ncn[nH]1
→ -1.8, 100, i, 1, 13, 162, -2
- NS(=O)(=O)c1ccc(NC(=O)CSC2CCCCC2)cc1
→ -1.4, 102, i, 1, ., ., 9
- CCCCCOC(=O)C1[C@H]2C(=O)N(Cc3cccs3)C[C@]23C=C[C@H]1O3 (stereo partly specified)
→ -0.6, 103, i, 0.94, ., ., -8
- COc1ccc(N2C(=O)CN=C2Nc2nc(C)cc(C)n2)cc1
→ -3.3, 100, i, 0.86, -348, 85, 0
- C=CCN1C(=O)NC2(CCCCC2)C1=O
→ -1.5, 97, i, 1, ., ., 4
- Cc1ccccc1Nc1c(-c2ccc(N3CCOCC3)cc2)nc2cnccn12
→ ., 101, i, 1, ., ., .
- Cc1cccc(C)c1NC(=O)CSc1nnc(-c2ccccc2)n1Cc1ccc2c(c1)OCO2
→ -0.5, 102, i, 0.96, -47, 147, -5
- CCOC(=O)CCC(NC(=O)c1ccc(NCN2C(=O)c3ccccc3C2=O)cc1)C(=O)OCC (stereo unspecified)
→ 0.7, 102, i, 0.9, -58, 97, -1
- COc1ccc(CCN2CN(S(=O)(=O)c3ccccc3)c3nc4ccccc4nc32)cc1OC
→ 0.9, 98, i, 0.97, ., ., 0
- COc1ccc(NC(=O)CC2C(=O)N(c3ccc(OC)cc3)C(=O)N2CCc2cccs2)cc1 (stereo unspecified)
→ -1.3, 91, i, 0.91, -6, 46, 0
- Cc1oc(C(=O)O)cc1COc1ccccc1Cl
→ -2.6, 102, i, 1.1, 10, 153, -4
- N#Cc1c(Sc2ncc(C(F)(F)F)cc2Cl)nsc1C/C=N\OCc1c(F)cccc1Cl
→ -0.8, 102, i, 1.2, i, 52, -10
- Cc1cc(N2C(=O)C3C4CCC(C4)C3C2=O)no1 (stereo unspecified)
→ ., 100, i, 0.95, ., ., -6
- O=c1cc(CO)occ1OCc1ccccc1
→ -1.9, 98, i, 1, -22, 110, 0
- CC(C)Oc1ccc(CCC(=O)NNC(=S)NCc2ccccc2)cc1
→ ., 101, i, 1.1, ., ., .
- O=C1CC(c2ccc(F)cc2)SC(N(c2ccccc2)c2ccccc2)=N1 (stereo unspecified)
→ -1.6, 114, i, 1, 23, 144, -16
- Oc1c(C=C2N=c3ccccc3=N2)sc(=S)n1-c1ccc(F)cc1
→ 0.0&-3.2, 99&101, i, 1.1, 0, 122, -3&3
- C=CCNC(=O)C1CC=CCC1C(=O)O (stereo unspecified)
→ -2.4, 103, i, 0.8, 18, 55, -1
- Clc1ccc(-c2cn3c(n2)SCC3)cc1
→ ., 103, i, 1, 42, 67, -6
- Cn1c(=O)c(-c2ccccc2)nc2ccccc21
→ -1.1, 112, i, 0.96, -328, 43, -9
- COC(=O)/C=C\C(=O)Nc1cccc([N+](=O)[O-])c1
→ -1.0, 75, i, 0.7, ., ., 0
- O=C(C1CC(=O)N(C2CCCC2)C1)N1CCC(Cc2ccccc2)CC1 (stereo unspecified)
→ -1.0, 99, i, 1.2, 34, 107, -3
- Cc1ccccc1-c1nc(SCc2cccnc2)c2c(=O)n(C)c(=O)n(C)c2n1
→ ., 128, i, 0.98, 27, 67, -1
- Cc1ccc(-n2c(SCC(=O)Nc3cc(C)on3)nc3ccccc3c2=O)cc1
→ 0.6, 35, i, 0.74, 5, 112, -2
- COc1ccc(Cn2nnc3c(=O)[nH]c(C(=O)NCCc4ccc(F)cc4)nc32)cc1OC
→ 0.6, 97, i, 0.9, 90*, 60*, -2
- COc1cc(NC(=O)c2ccc(Br)o2)ccc1NC(=O)C(C)C
→ -0.4, 97, i, 1, -7, 174, 1
